Assay outcomes deposited in PubChem BioAssay by National Center for Advancing Translational Sciences (NCATS).
PINK1 modulator: A Quantitative High throughput Screen to Identify Chemical Modulators of PINK1 Expression; PINK1 immunofluorescence, high-content cytometry, 24 h; Potency, µM (titrated, usually from 76.6 µM), without a hit: at the top dose activation (PINK1 increase), usual class: activators; 410,000 tested, 0.2% active; AID 624263, 2012; active = well fitted activation curve with a large enough effect; inconclusive = small, poorly fitted or top-dose-only effect; inactive = flat fitted curve, though single readings scatter; cell line not stated here;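 further: potency means the concentration at half of the fitted maximal effect; % of control where 0% means no effect; nearly all actives have a fitted effect of over 65% in size; a mitochondrial uncoupler was the plate control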
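Readout is PINK1 immunofluorescence, quantified alongside mitochondrial, cell and nuclear markers by laser-scanning microplate cytometry. Cells from a stable line were exposed to compound titrations (5 concentrations) for 24 hours, with CCCP controls.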
gsp antag: qHTS for Antagonists of gsp, the Etiologic Mutation Responsible for Fibrous Dysplasia/McCune-Albright Syndrome: qHTS; gsp-mutant cells, cAMP HTRF, 30 min; control for the full effect not named in the record; Potency, µM (series often up to 76.9 µM), for inactives: top-dose activity change, negative = inhibition, hits mostly inhibitors; 340,000 tested, 0.4% active; AID 624288, 2012; active = falling curve of any shape with a large fitted effect; inconclusive = falling curve, mostly with a smaller effect; inactive = flat or rising curve; cell line not stated here;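 further: intracellular cAMP measured with PDE inhibitor Ro 20-1724 present during compound exposure; potency means the concentration at half of the fitted maximal effect; on the % scale 0 is the no-effect control and ±100 the full control effect; nearly all actives have a fitted effect of over 65% in size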
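G418-selected cells were plated in DMEM/10% FBS for 16-24 h at 37C, then treated with compounds plus the PDE inhibitor […] (300 uM solution added) for 30 min at 37C. Intracellular cAMP was measured by HTRF after 30 min lysis at room temperature.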
D2 agonist: Beta-Arrestin HTS for Positive Allosteric Modulators of the Human D2 Dopamine Receptor: Agonists; D(2) dopamine receptor (Homo sapiens), P14416; DiscoveRx PathHunter D2 beta-arrestin, luminescence, 90 min; 100% = 57 uM dopamine signal; activation, % (no concentration beside the values); 360,000 tested, 0.084% active; AID 624465, 2012; in the data active = activation above about 40%; inconclusive = about 15% to 40%; inactive = below about 15%; further: compound concentration not given in the record; the text of the record calls up to 30% inactive
Target sequence (P14416 whole entry, looked up): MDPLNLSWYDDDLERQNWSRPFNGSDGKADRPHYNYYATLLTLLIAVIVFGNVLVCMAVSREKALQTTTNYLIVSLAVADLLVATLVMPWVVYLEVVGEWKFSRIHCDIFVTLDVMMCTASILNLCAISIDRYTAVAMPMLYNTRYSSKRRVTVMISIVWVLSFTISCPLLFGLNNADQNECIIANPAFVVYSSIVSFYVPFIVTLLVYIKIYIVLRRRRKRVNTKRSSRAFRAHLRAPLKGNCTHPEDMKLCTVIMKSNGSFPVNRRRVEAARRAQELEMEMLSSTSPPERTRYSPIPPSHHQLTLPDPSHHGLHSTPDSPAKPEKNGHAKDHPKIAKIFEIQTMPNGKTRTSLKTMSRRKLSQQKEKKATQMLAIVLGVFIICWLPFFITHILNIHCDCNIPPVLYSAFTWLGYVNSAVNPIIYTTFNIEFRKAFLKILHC
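DiscoveRx PathHunter D2 beta-arrestin cells (2,100/well) attached overnight, then compound-stimulated 90 min at 37 C in HBSS/10 mM HEPES/0.1% Tween-20 buffer; beta-galactosidase complementation read by luminescence after 1 h at ambient temperature. Dopamine 57 uM final (EC100) as control.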
Sfp PPTase inh: qHTS Assay for Inhibitors of Bacillus subtilis Sfp phosphopantetheinyl transferase (PPTase); Biochemical Sfp PPTase activity, qHTS; 310,000 tested, 3.5% active; 4'-phosphopantetheinyl transferase ffp (Bacillus subtilis), Q9F4F7; AID 1490, 2009; Potency, µM, inactives show max response, negative = inhibition, hits mostly inhibitors; active means well fitted inhibition curve with a large enough effect; inconclusive means small, poorly fitted or top-dose-only effect, or another doubt; inactive means no such curve, though single readings can be large or run the other way;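 further: the enzyme is Sfp with the accession as filed and its product quenches rhodamine fluorescence; potency means the concentration at half of the fitted maximal effect; 0% = enzyme reaction without inhibitor and -100% = no enzyme wells; top concentration of the series not given in the record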
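Fluorescence-quenching assay with 15 nM Sfp, 5 uM rhodamine-CoA and 12.5 uM BHQ-2-labelled ybbR peptide in pH 7.6 Hepes/MgCl2 buffer. Enzyme was pre-incubated with compound for 15 min at room temperature. Rate was taken from the 30-min fluorescence change (525/598 nm).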
Menin MLL FP FL: qHTS Assay for Inhibitors Targeting the Menin-MLL Interaction in MLL Related Leukemias: Competition With Fluorescein Labeled MLL-derived Peptide | FP activity change, % at 61.4 µM | Fluorescence polarization, fluorescein-MLL peptide displacement from menin | 290,000 tested, under 10 active; inconclusive = falling polarisation curve, or a change in total fluorescence; inactive = total fluorescence flat and polarisation flat or rising; no compound was filed as active; the % refers to the polarisation; negative = inhibition;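 further: % of control where 0% means no effect; inhibitors lower the polarisation; unlabelled MLL peptide was the positive control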
gsp ag: qHTS for Agonist of gsp, the Etiologic Mutation Responsible for Fibrous Dysplasia/McCune-Albright Syndrome: qHTS | gsp mutant cells, cAMP HTRF, 30 min; control for the full effect not named in the record | Potency, µM (doses to about 76.9 µM), for inactives: at the highest dose activation (cAMP increase), actives largely listed as activators | 340,000 tested, 0.13% active | AID 624287, 2012; active = well fitted activation curve with a large enough effect; inconclusive = small, poorly fitted or top-dose-only effect, or another doubt; inactive = no such curve, though single readings can be large or run the other way; cell line not stated here;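 further: phosphodiesterase inhibitor Ro 20-1724 added with compounds to block cAMP breakdown; potency means the concentration at half of the fitted maximal effect; nearly all actives have a fitted effect of over 60% in size; about a fifth of the inactives were tested at one dose only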
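Cells in DMEM/10% FBS with G418 were pretreated with compounds in DMSO plus […] (300 uM stock) for 30 min at 37C. cAMP was measured by HTRF (cAMP-d2 plus anti-cAMP antibody-K) after 30 min at room temperature.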
ClpP mod: qHTS Assay for Activators of ClpP | ATP-dependent Clp protease proteolytic subunit (Bacillus subtilis (strain 168)), P80244 | purified B. subtilis ClpP, FRET peptide cleavage, 20 min | Potency, µM (highest dose often 57.5 µM), for inactives: at the top dose activity change, negative = active | 340,000 tested, 1.9% active | AID 651965, 2013; active = well fitted falling curve with a large enough effect; inconclusive = small, poorly fitted or top-dose-only effect; inactive = no such curve, though single readings can be large or run the other way; further: potency means the concentration at half of the fitted maximal effect; the source files actives as falling curves though it sought activators and does not explain the sign; nearly all actives have a fitted effect of over 65% in size; many hits overshoot -100%
Target sequence (P80244 whole entry, looked up): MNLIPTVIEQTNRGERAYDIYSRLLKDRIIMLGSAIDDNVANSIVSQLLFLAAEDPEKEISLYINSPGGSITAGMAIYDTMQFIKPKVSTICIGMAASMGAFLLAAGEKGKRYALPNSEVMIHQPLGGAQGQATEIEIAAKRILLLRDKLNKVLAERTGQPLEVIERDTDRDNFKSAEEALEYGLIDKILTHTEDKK
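ClpP 10 microg/mL final, pH 8 Tris/KCl buffer with BSA, glycerol, Tween-20; compound pinned in; FRET-FV substrate; RT 20 min; Ex320/Em430; ΔFRET vs ADEP 5.8 microM, DMSO, no enzyme.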
The depositor's hits bear a star; ? = inconclusive; . = no result given; [ ] = remark or other dose.

SMILES	PINK1 modulator	gsp antag	D2 agonist	Sfp PPTase inh	Menin MLL FP FL	gsp ag	ClpP mod
CC1CC(C)CN(C(=O)C(C)N2CCN(S(=O)(=O)c3ccc(Br)s3)CC2)C1 (stereo unspecified)	0.9%	?	3.2	.	.	10%[15.4 µM]	-23%
CC1CCCC(C)N1C(=O)CSc1nnc(-c2ccco2)n1C (stereo unspecified)	-0.7%	2%	-2.4	.	.	?	-1.9%
Cc1ccc(NC(=S)C2=C(O)c3ccccc3N(C)S2(=O)=O)cc1	-1.2%	?	-6.2	12%	7.0	0%	-0.8%
COc1cccc(Cn2cccc(NC(=O)Nc3ccccc3C)c2=O)c1	4.0%	-13%	-1.9	-4%	-1.6	-43%[inhibitor]	3.7%
O=C(NCC(=O)N(CC1CCCO1)C(C(=O)NC1CCCCC1)c1ccc(F)cc1)c1ccco1 (stereo unspecified)	-1.3%	11%	-3.5	6%	0.0	1%	-0.3%
O=C(CNS(=O)(=O)N1CCOCC1)N/N=C/c1cccnc1	1.4%	8%	-0.1	-4%	2.1	32%	.
Cc1ccc2ccccc2c1C(O)c1ncc(-c2cccc(C(F)(F)F)c2)[nH]1 (stereo unspecified)	22%	.	-2.5	.	.	.	-3.4%
COc1cc(/C=C(\C#N)c2nc3ccccc3n2C)cc(OC)c1O	0.6%	8%	5.3	6%	?	-11%	0.4%
CC1(C)CC(=O)C=C(c2n[nH]nc2C2CCCCC2)C1	0.9%	.	-6.0	.	.	-30%	-1.0%
COc1ccc(N2CC(C(=O)N[C@@H](C)C(=O)N[C@H](CO)c3ccccc3)CC2=O)cc1 (stereo partly specified)	-1.1%	0%	2.9	6%	?	?	1.6%
CC(NC(=O)COC(=O)Cc1cccs1)c1ccc(F)cc1 (stereo unspecified)	-1.8%	9%	-2.0	.	.	18%	-1.9%
Cc1cs/c(=N\N=C\c2cccc([N+](=O)[O-])c2)n1Cc1ccco1	2.5%	-19%	0.6	5%	4.4	?	1.5%
CC(C)n1c(O)c(N=NC(=O)Cc2csc(N3CCOCC3)n2)c2ccccc21	1.9%	20%	-1.9	-2%	-4.3	-14%	.
c1ccc(CCCN2CCOCC2)cc1	0.5%	5%	0.0	-24%	-1.4	-35%[inhibitor]	.
O=C(CCN1C(=O)S/C(=C\c2ccc(F)cc2)C1=O)Nc1ccc(C(=O)O)c(O)c1	2.1%	1%	-2.6	-2%	.	-1%	-7.0%
CCOc1ccc(S(=O)(=O)N2CCN(C(=O)c3cc4c(s3)CCCC4)CC2)cc1	3.6%	-19%	0.1	-1%	0.2	21%	?
COc1ccc2[nH]c3c(C)c4ccncc4c(C)c3c2c1	-1.3%	-3%	-7.3	16µM*	.	.	-5.2%
CC(=O)c1c(C)nc(-c2ccccc2)nc1NC(=O)C(C)C	-1.2%	0%	-6.2	10%	-1.7	14%	-1.4%
c1ccc(-c2nc3ccccc3[nH]2)cc1	0.9%	1%	-1.8	20%	-2.9	.	4.1%
CCOCCCn1c(SCC(=O)NC2CCCCC2)nc2ccccc2c1=O	4.3%	.	-2.1	.	.	-15%	-2.5%
CNc1snc(C)c1C(=O)OC(C)C(=O)Nc1cccc(C)c1 (stereo unspecified)	2.8%	-10%	0.7	.	.	-25%	1.8%
CC(=O)c1cccc(NC(=O)c2cc(-c3ccco3)on2)c1	0.1%	-1%	-2.3	-29%	9.7	-8%[15.4 µM]	.
COc1cccc(-c2cc(C(=O)N3CCCCCC3)no2)c1	0.8%	-2%	-3.3	-19%	1.4	-69%[inhibitor]	-5.4%
Cc1cc(NC(=O)C(C)SCC(=O)OCC(=O)N(C)c2ccccc2)no1 (stereo unspecified)	-0.8%	-1%	-3.7	.	.	-9%[15.4 µM]	-27%
COc1ccc([C@H]2C[C@H](O)[C@@H](n3cc(-c4ccc(F)cc4)nn3)CN2Cc2cccs2)cc1	-1.0%	.	-6.8	.	.	-57%[inhibitor]	-8.5%
CCCn1c(Cc2ccccc2)n[nH]c1=S	1.1%	-6%	2.9	14%	0.2	12%	-1.2%
O=C(COC(=O)Cc1ccc(Cl)cc1)Nc1ccc(OC(F)F)cc1	1.4%	13%	-0.2	15%	3.1	5%[15.4 µM]	-1.3%
CCC(C)c1ccc(S(=O)(=O)N2CCN(C(C)C(=O)NC3CCCC3)CC2)cc1 (stereo unspecified)	-0.3%	-12%	0.9	.	.	-16%	0.4%
CSCCC(NC(=O)/C(=C/c1ccc2c(c1)OCO2)NC(=O)c1cccc([N+](=O)[O-])c1)C(=O)O (stereo unspecified)	-1.2%	10%	2.2	15%	3.7	-81%[inhibitor]	0.7%
COc1ccc(NC(=O)CN(C)CC(=O)Nc2cccc(F)c2)cc1Cl	1.0%	-11%	-4.2	0%	1.2	2%[15.4 µM]	.
OCC1(Cc2ccc(F)cc2F)CCCN(CCCc2ccccc2)C1 (stereo unspecified)	17%	8%	3.5	3%	0.4	1%	2.9%
COc1cc(C(=O)N(c2ccc(C)c(C)c2)C2C=CS(=O)(=O)C2)cc(OC)c1OC (stereo unspecified)	-0.3%	-6%	-2.3	3%	6.4	-12%[15.4 µM]	-1.6%
Oc1ccccc1-c1cc(C(F)(F)F)nc(-c2ccccc2)n1	19%	-6%	-2.3	25%	-5.4	10%	.
Cc1cc(C(C)(C)C)cc(C)c1S(=O)(=O)N1CCN(C(=O)c2cc([N+](=O)[O-])c[nH]c2=O)CC1	0.6%	?	-2.8	-2%	2.8	15%[15.4 µM]	0.0%
O=C(CCN1CCCCC1)N/N=C/c1c[nH]c2ccccc12	-0.5%	-7%	-3.5	8%	3.2	-10%	.
CCn1c(SCC(=O)N/N=C/C=C\c2ccccc2[N+](=O)[O-])nc2ccccc21	9.0%[38.3 µM]	-13%	-0.6	3%	0.8	19%	1.5%
N#C/C(=C/c1ccc(CNS(=O)(=O)c2ccccc2)o1)C(N)=O	-2.0%	-16%	-0.4	?	2.8	-3%	-4.4%
Cc1cc(C)c(C)c(OCCCCn2cnc3ccccc3c2=O)c1	-4.0%[38.3 µM]	-23%	2.6	1%	0.1	-70%[inhibitor]	0.2%
O=C1NC(=O)C(Cc2cccc(Oc3ccccc3)c2)S1 (stereo unspecified)	0.0%	2%	4.9	7%	-4.8	-30%	0.7%
Cc1nn2c(COc3ccc(NC(=O)c4ccccc4Cl)cc3)nnc2c2ccccc12	2.4%	10%	1.6	-9%	.	-10%	-3.2%

Shown field by field: part of the list above
CCOc1ccc(S(=O)(=O)N2CCN(C(=O)c3cc4c(s3)CCCC4)CC2)cc1
  PINK1 modulator: 3.6% | gsp antag: -19% | D2 agonist: 0.1 | Sfp PPTase inh: -1% | Menin MLL FP FL: 0.2 | gsp ag: 21% | ClpP mod: ?
CCC(C)c1ccc(S(=O)(=O)N2CCN(C(C)C(=O)NC3CCCC3)CC2)cc1 (stereo unspecified)
  PINK1 modulator: -0.3% | gsp antag: -12% | D2 agonist: 0.9 | Sfp PPTase inh: . | Menin MLL FP FL: . | gsp ag: -16% | ClpP mod: 0.4%
OCC1(Cc2ccc(F)cc2F)CCCN(CCCc2ccccc2)C1 (stereo unspecified)
  PINK1 modulator: 17% | gsp antag: 8% | D2 agonist: 3.5 | Sfp PPTase inh: 3% | Menin MLL FP FL: 0.4 | gsp ag: 1% | ClpP mod: 2.9%

Profiles, quoted from the list. Values in the order: PINK1 modulator | gsp antag | D2 agonist | Sfp PPTase inh | Menin MLL FP FL | gsp ag | ClpP mod
CC(=O)c1c(C)nc(-c2ccccc2)nc1NC(=O)C(C)C is entered as -1.2% | 0% | -6.2 | 10% | -1.7 | 14% | -1.4%
CC1CCCC(C)N1C(=O)CSc1nnc(-c2ccco2)n1C (stereo unspecified) is entered as -0.7% | 2% | -2.4 | . | . | ? | -1.9%
COc1cccc(-c2cc(C(=O)N3CCCCCC3)no2)c1 is entered as 0.8% | -2% | -3.3 | -19% | 1.4 | -69%[inhibitor] | -5.4%
Cc1cc(C(C)(C)C)cc(C)c1S(=O)(=O)N1CCN(C(=O)c2cc([N+](=O)[O-])c[nH]c2=O)CC1 is entered as 0.6% | ? | -2.8 | -2% | 2.8 | 15%[15.4 µM] | 0.0%

Later entries.
SMILES	PINK1 modulator	gsp antag	D2 agonist	Sfp PPTase inh	Menin MLL FP FL	gsp ag	ClpP mod
Cc1cc(C)c(C#N)c(SCC2COc3ccccc3O2)n1 (stereo unspecified)	-1.2%	?	0.4	-12%	4.6	-59%[inhibitor]	0.2%
CC(=O)c1c(C)nc2nonc2c1N	0.5%	6%	-3.3	18%	1.9	17%	-7.3%
Cc1ccc(/C=N/Nc2cn[nH]c(=O)n2)o1	-0.1%	-6%	-5.5	50µM*	2.4	22%	.
CSc1cccc(NC(=O)CN(c2ccc(C)cc2C)S(C)(=O)=O)c1	8.6%	-3%	-2.2	2%	0.3	-35%	-2.5%
Cn1ccnc1SCC(=O)N1CCc2ccccc21	1.7%	6%	-4.2	14%	.	23%	-1.0%
O=c1c2ccccc2oc2cc(OCc3ccc(F)cc3)cc(O)c12	14%	8%	7.6	-2%	0.7	-7%	.
CC(C)N1CCN(Cc2ccc3c(c2)Cc2ccccc2-3)CC1CCO (stereo unspecified)	7.0%	-4%	-2.4	3%	-1.8	2%	-5.7%
CCOc1ccc(NC(=O)CCC(=O)N/N=C(\C)c2cccs2)cc1	3.2%	0%	2.2	10%	.	?	3.5%
